TRPV1 potentiator: HTS Assay for Compounds that Act as Potentiators of the Vanilloid Receptor 1. Transient receptor potential cation channel subfamily V member 1 (Homo sapiens), Q8NER1. TRPV1-expressing cells, Fluo-8 calcium influx, capsaicin EC20 potentiation; host cell line not named in the record; control for the full effect not named in the record. potentiation, % at 8.33 µM. 320,000 compounds, 0.02% hits; active means potentiation above 80%; inconclusive means 30% to 80%; inactive means below 30%; also: 0% is about no effect
Target sequence (Q8NER1 whole entry, looked up): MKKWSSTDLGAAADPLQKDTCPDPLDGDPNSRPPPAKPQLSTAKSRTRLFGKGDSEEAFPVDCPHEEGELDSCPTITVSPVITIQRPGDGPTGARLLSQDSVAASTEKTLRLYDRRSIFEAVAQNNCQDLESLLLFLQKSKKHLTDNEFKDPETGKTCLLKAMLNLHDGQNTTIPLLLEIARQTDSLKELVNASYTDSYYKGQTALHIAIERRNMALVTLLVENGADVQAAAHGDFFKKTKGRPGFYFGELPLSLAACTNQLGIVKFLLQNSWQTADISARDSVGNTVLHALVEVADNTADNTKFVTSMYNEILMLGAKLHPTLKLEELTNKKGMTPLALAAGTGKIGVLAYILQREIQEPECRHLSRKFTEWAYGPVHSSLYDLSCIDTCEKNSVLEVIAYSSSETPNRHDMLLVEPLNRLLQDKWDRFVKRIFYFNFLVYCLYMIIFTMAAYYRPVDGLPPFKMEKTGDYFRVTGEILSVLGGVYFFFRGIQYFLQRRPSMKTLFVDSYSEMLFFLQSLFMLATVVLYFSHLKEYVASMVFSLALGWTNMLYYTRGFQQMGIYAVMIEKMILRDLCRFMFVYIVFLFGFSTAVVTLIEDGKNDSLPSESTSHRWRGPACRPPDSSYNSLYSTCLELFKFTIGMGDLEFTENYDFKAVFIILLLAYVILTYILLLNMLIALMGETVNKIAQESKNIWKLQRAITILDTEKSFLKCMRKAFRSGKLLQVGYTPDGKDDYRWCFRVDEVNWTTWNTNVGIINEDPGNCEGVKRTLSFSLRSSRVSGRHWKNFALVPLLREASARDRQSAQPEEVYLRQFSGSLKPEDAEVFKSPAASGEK
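Cells expressing TRPV1 were dye-loaded with Fluo-8 and read kinetically: 10 s baseline, 3 min after compound (agonist portion), then 2 min after EC20 capsaicin (allosteric enhancer portion). Calcium-bound dye fluorescence at 480/520 nm.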
TRPML1 ag: qHTS for Agonists of the Human Mucolipin Transient Receptor Potential 1 (TRPML1). AID 624414, 2012. TRPML1-expressing cells, Ca2+ dye fluorescence, FDSS; host cell line not named in the record; reference of the full effect not given here. activation, % (test concentration not listed). 410,000 compounds, 0.12% hits. Mucolipin-1 (Homo sapiens), Q9GZU1; in the data active = activation above about 50%; inconclusive = about 30% to 50%; inactive = below about 30%; also: 0% is about no effect; the text of the record puts the active cut at 80%
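TRPML1-DL cells, Tet-induced overnight (~16 h, 37 degrees C), loaded 45-90 min at room temperature with Ca8 no-wash calcium dye plus quencher. FDSS fluorescence: 10 s baseline, compound pin-transfer, 110 s agonist read, then EC80 54-4 (4uM final) and 110 s antagonist read.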
D2 potentiator: Beta-Arrestin HTS for Positive Allosteric Modulators of the Human D2 Dopamine Receptor: Potentiators | 360,000 compounds, 0.23% hits | D(2) dopamine receptor (Homo sapiens), P14416 | potentiation, % (test concentration not listed) | DiscoveRx D2 beta-arrestin cells, luminescence, 90 min; 100% = 57 uM dopamine signal; active = potentiation of 50% or more; inconclusive = 30% to 50%; inactive = 30% or less;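 also: compound concentration not given in the record; tested on top of an EC20 dose of dopamine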
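PathHunter D2 cells, attached overnight at 37 deg C, received compound in DMSO plus dopamine at EC20 (50 nM final) for 90 min at 37 deg C. Beta-arrestin recruitment was read as luminescence after 1 h with detection reagent at ambient temperature.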
TRPML1 blocker: qHTS for Inhibitors of the Human Mucolipin Transient Receptor Potential 1 (TRPML1). TRPML1-inducible cells, Ca2+ dye fluorescence, FDSS; stronger effect = lower value; inhibition of EC80 agonist-evoked calcium signal. activity change, negative = inhibition, % (no concentration beside the values). 390,000 compounds, 0.02% hits. AID 624415, 2012; in the data active means activity change below about -50%; inconclusive means about -30% to -50%; inactive means above about -30%;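 also: stimulus is agonist 54-4 at its EC80 concentration; % is scaled to controls: 0 for no effect and ±100 for the full control effect; compound concentration not given in the record; the text of the record puts the active cut at -80%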
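TRPML1-DL cells, Tet-induced overnight (~16 h, 37 °C) at 1,500 cells/well, were loaded with Ca8 no-wash dye plus quencher for 45-90 min at room temperature. Compounds were pinned during FDSS kinetic reading; agonist 54-4 at EC80 (4 uM final) then added.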
Six1-Eya2 inh: qHTS Assay for Inhibitors of the Six1/Eya2 Interaction; activity change, % (concentration not given with the values); 360,000 compounds, 0.56% hits; AlphaScreen GST-Six1/His-Eya2 binding, biochemical; stronger effect = lower value; control for the full effect not named in the record; Homeobox protein SIX1 (Homo sapiens) + Protein phosphatase EYA2 (Homo sapiens), …; in the data active = activity change below about -65%; inconclusive = about -30% to -65%; inactive = above about -30%; also: % is scaled to controls: 0 for no effect and ±100 for the full control effect
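Six1/Eya2 binding was read as AlphaScreen signal after compounds were pinned into GST-Six1 plus His-tagged Eya2 (5X stock 250/500 nM) in pH 8.0 Tris/NaCl/TCEP buffer, beads added, then incubated 1 h, 37 C, dark.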
CtBP-E1A inh: qHTS Assay for Inhibitors of the CtBP/E1A Interaction; CtBP / adenovirus E1A interaction (AlphaScreen); AlphaScreen GST-E1A/His-CtBP binding, 1536-well; stronger effect = lower value; control for the full effect not named in the record; activity change, % (no concentration beside the values); 340,000 compounds, 0.49% hits; in the data active means activity change below about -65%; inconclusive means about -30% to -65%; inactive means above about -30%; also: % is scaled to controls: 0 for no effect and ±100 for the full control effect
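In 5 uL wells, 23 nL compound meets equimolar GST-E1A and His-CtBP (5X stock 125 nM each) for 2 h, 37 °C. Beads (5X, 50 ug/mL) then 1 h, 37 °C, dark.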
* hit, by the source's call; ? = inconclusive; / = not tested or not shown; & = joins results of further samples. Compounds were not picked by outcome; any-hit rate near 0.95%.

no.	canonical_smiles	TRPV1 potentiator	TRPML1 ag	D2 potentiator	TRPML1 blocker	Six1-Eya2 inh	CtBP-E1A inh
1	C=CCn1c(SCC(=O)NC(=O)c2cccc([N+](=O)[O-])c2)nnc1-c1ccccc1F	-0.6	2.5	-15.3	4.4	10.0	1.5
2	N#CC1=C(N)Nc2ncnn2C1c1ccc([N+](=O)[O-])cc1 (stereo not drawn)	-5.3	0.3	0.1	8.2	-0.3	-3.2
3	Cc1ccc(OCC(=O)Nc2nnc(-c3ccco3)s2)cc1	7.0	0.4	-0.9	-4.8	-2.4	4.3
4	C[C@@H]1CN([C@H](C)CO)C(=O)CCCn2nncc2CO[C@@H]1CN(C)C(=O)Nc1ccc2c(c1)OCO2	/	-0.3	3.4	9.5	18.4	7.1
5	COc1ccc(NS(=O)(=O)c2ccc(-c3coc(C)n3)cc2)cc1OC	11.0	-1.1	-1.3	-5.1	-1.7	-2.3
6	CCOc1ccccc1CN1CCC(N2CCOCC2)CC1	-4.3	1.1	-11.1	-4.1	3.9	/
7	CCC(=O)Nc1ccc(N2CCN(C(=O)c3ccco3)CC2)c(Cl)c1	2.2	-0.2	-11.7	4.8	11.3	10.8
8	COc1nc(Nc2ccc(C(C)=O)cc2)nc(OC)n1	/	-0.5	14.2	-6.9	-17.8	8.7

Some entries already given with just TRPML1 ag.
nr	compound	TRPML1 ag
5	COc1ccc(NS(=O)(=O)c2ccc(-c3coc(C)n3)cc2)cc1OC	-1.1
4	C[C@@H]1CN([C@H](C)CO)C(=O)CCCn2nncc2CO[C@@H]1CN(C)C(=O)Nc1ccc2c(c1)OCO2	-0.3

(list continues)
no.	canonical_smiles	TRPV1 potentiator	TRPML1 ag	D2 potentiator	TRPML1 blocker	Six1-Eya2 inh	CtBP-E1A inh
9	O=C1NCCN1c1ccccc1	/	0.5	4.1	8.2	0.8	5.8
10	COc1cccc(NC(=O)N2C3CCCC2CC(NC(=O)C2CC2)C3)c1 (stereo not drawn)	3.2	-0.2	-4.0	-11.2	15.0	-3.1
11	Cc1cc2oc(=O)cc(CN3CCOCC3)c2cc1C	-4.9	-0.3	-3.5	-5.2	2.3	-2.0
12	CN(C)CC(=O)Nc1ccc2cn[nH]c2c1	2.9	-0.4	-4.7	-0.3	-3.3	/
13	O=C(NCc1ccco1)c1ccc(=O)oc1	9.7	0.2	1.4	4.2	16.1	3.7
14	CCOC(=O)C1(C)CCCN1C(=O)c1cccs1 (stereo not drawn)	/	-0.8	1.3	/	1.8	4.7
15	Cn1c(SCC(=O)NC2CCCC2)nnc1C(F)(F)F	3.9	-0.3	-4.7	-15.1	9.7	-3.9
16	CN(C)CCCOC(=O)N1c2ccccc2C=Cc2ccccc21	-14.1	1.4	-19.4	-9.0	-1.0	/
17	COc1ccc2c(CC(=O)N3CCc4ccccc43)coc2c1	-4.9	-0.8	3.6	-12.5	5.0	14.1
18	CCc1nc2ccc(C(=O)Nc3cccc(NS(C)(=O)=O)c3)cn2c1N(C)C(=O)c1cccc(OC)c1	/	-0.3	-8.4	?	2.4	-6.4
19	COc1ccccc1Oc1ccc(N/C=C/C(=O)c2ccco2)cc1	-12.0	-0.1	6.8	4.5	-7.6	0.7
20	O=C(CN1C(=O)COc2ccccc21)Nc1ccc(F)cc1	/	-0.5	16.8	-10.9	-12.2	-3.8
21	CC(C)(C)NC(=O)c1ccc2nccnc2c1	-10.9	-0.4	-9.4	5.9	4.8	4.3
22	COc1ccccc1C(=O)NCCC(=O)NCCC12CC3CC(CC(C3)C1)C2	-2.2	-0.4	-7.9	15.1	2.4	1.4
23	COc1ccc(C2/C(=C(/O)c3ccccc3)C(=O)C(=O)N2c2ccccn2)c(OC)c1 (stereo not drawn)	5.6	-0.4	-34.4	20.2	-2.1	3.6
24	O=S(=O)(CCN1CCCC1)NCCNS(=O)(=O)c1ccc(F)cc1Br	/	-0.2	-10.8	5.0	4.9	-3.4
25	O=C(CSc1ncnc2sc3c(c12)CCCC3)N1CCC(c2noc3ccc(F)cc23)CC1	-5.6	3.1	10.3	-3.3	3.5	13.9&8.1
26	Cn1cccc1C(=O)OCC(=O)N1CCc2ccccc2C1	/	-0.2	-18.6	-5.1	13.1	0.0
27	CCOC(=O)c1sc2ncn(C(C)C(=O)OC)c(=O)c2c1C (stereo not drawn)	5.0	0.5	-7.7	29.8	2.3	9.9
28	COc1ccc([N+](=O)[O-])cc1C(=O)C(=O)c1ccccc1	3.3	-0.2	-4.7	67.1	-7.5	-14.8
29	C=CCOC(=O)C(=O)/C=C/c1c(C)n(C)n(-c2ccccc2)c1=O	-13.4	1.4	-2.6	-5.7	12.0	6.9
30	O=C(c1ccccc1S(=O)(=O)NCc1ccccc1)N1CCCCC1	-3.1	0.0	-13.3	-2.9	11.5	-1.7
31	COCC1CCCN(Cc2nc(Cc3ccccc3)no2)C1 (stereo not drawn)	2.5	-0.7	-12.1	33.0	?	0.0
32	O=[N+]([O-])c1cccc(-c2ccc3nnc(SCc4ccccn4)n3n2)c1	-20.0	/	-2.6	/	2.7	7.9
33	COc1cc2c(cc1NC(=O)COC(=O)[C@@H](NC(=O)c1ccccc1F)C(C)C)oc1ccccc12	9.2	-0.2	-7.4	11.7	-1.3	2.0
34	Cc1ccc(C)c(NC(=O)COc2cccc3c2CCN(Cc2ccccc2)C3=O)c1	8.1	0.9	2.3	-0.7	-6.4	-13.1
35	COc1cccc(OCc2cc(/C=N/NC(=O)c3nc(Cl)c(Cl)c(N)c3Cl)ccc2OC)c1	0.8	0.5	-11.0	-10.1	1.7	7.7
36	CCc1nnc(NS(=O)(=O)c2ccc(NC(=O)c3ccccc3)cc2)s1	-4.1	0.0	-11.2	22.5	4.5	/
37	Cc1ccc([N+](=O)[O-])cc1NC(=O)CN1CCC(C)CC1	-46.6	1.4	-40.5	23.4	-5.3	2.8
38	O=C(CSc1cccc2cccnc12)OCC(=O)c1ccccc1	-3.8	4.0	-7.8	-19.7	-87.7*	-93.3*
39	O=C1NC(=O)C2C1C(c1ccc([N+](=O)[O-])cc1)=NN2Cc1ccccc1 (stereo not drawn)	3.8	19.6	-3.8	2.3	2.5	-1.4
40	O=C(NCc1ccc2c(c1)OCO2)NC1CCCCC1	6.2	-1.1	2.5	5.9	10.1	0.0
41	c1ccc(CNc2nc(NCc3ccccc3)c3sccc3n2)cc1	/	27.3	-14.7	/	-0.4	-5.5
42	CCOC(=O)c1c(C)[nH]c(C)c1C(=O)COC(=O)c1cccc(C)c1O	12.5	0.0	-16.4	-5.5	-10.6	12.0
43	Fc1ccc(NC(=S)N2CCCN(c3ccc(C(F)(F)F)cn3)CC2)c(F)c1	13.2	2.0	-16.1	8.2	1.7	/
44	O=C(Nc1cccc(C(=O)N2CCCCC2)c1)C1CCCC1	/	-0.7	/	55.6	5.3	-3.3
45	O=C(Nc1ccc2ccccc2c1)c1cccc(F)c1	-22.8	1.1	-9.3	-11.6	-3.2	/
46	O=C(NCCOC(=O)c1ccccc1C(=O)OCCNC(=O)c1cccnc1)c1cccnc1	0.8	-0.7	-5.8	15.4	3.5	2.3
47	CC(=O)c1cccc(NC(=O)COC(=O)CCNS(=O)(=O)c2ccccc2)c1	/	0.9	4.6	-1.6	0.2	9.4
48	CC(C)(C)c1ccc(-n2ncc3c2CCCC3NC(=O)CCCn2cncn2)cc1 (stereo not drawn)	-33.2	0.6	-12.0	-4.8	7.2	5.1
49	Cc1ccc(N2CC(C(=O)NCc3cccnc3)CC2=O)cc1 (stereo not drawn)	-12.4	-0.2	7.2	3.3	-1.3	1.7
50	CCOc1ccc(S(=O)(=O)N(C)CC(=O)N2CCN(CC)CC2)cc1	4.4	-1.0	-8.5	-0.1	7.2	21.7
51	COc1ccc(CNC(=S)Nc2ccccc2F)cc1	-2.8	1.0	-1.9	-25.1	2.0	-5.2
52	COCCn1c(C)cc(C(=O)CSc2nc3ccccc3s2)c1C	-8.8	2.8	13.7	1.7	-16.8	-1.9
53	C=CCN1C(=O)c2ccc(C(=O)N3CCN(S(=O)(=O)c4cccc(Cl)c4)CC3)cc2C1=O	-0.5	-0.6	-4.6	16.2	1.3	7.8
54	CCNC(=O)C1Cc2cc(S(=O)(=O)N3CCCC3)ccc2N1C(C)=O (stereo not drawn)	-3.2	-0.4	-1.1	12.6	1.8	7.4
55	O=C(O)c1cc(S(=O)(=O)Nc2cccc(S(=O)(=O)N3CCCC3)c2)ccc1Cl	-0.5	0.7	-0.4	25.0	5.1	-14.8
56	CCOC(=O)NN1C(=O)c2ccccc2NC1c1ccccc1 (stereo not drawn)	14.2	0.3	-5.0	17.6	8.7	-0.9
57	CCOc1ccc(CN(C)C(=O)c2cccc(S(=O)(=O)Nc3ccccc3OC)c2)cc1OC	/	0.1	-4.8	1.4	-1.2	-0.1
58	C=CCc1cc(CN2CC(C)OC(C)C2)c(O)c(OC)c1 (stereo not drawn)	/	0.4	-13.4	9.4	-11.1	-7.8
59	COc1ccc(S(=O)(=O)N2CCC(C(=O)N3CCCC3)CC2)cc1C	1.9	-0.7	-3.6	4.1	8.6	3.3
60	CCOC(=O)C(NC(=O)Nc1ncccn1)(Oc1ccccc1)C(F)(F)F (stereo not drawn)	-0.9	0.4	-6.3	-6.1	9.7	-4.5
61	N#CC1=C(SCC(=O)c2ccc(Cl)cc2)NC2=C(C(=O)CCC2)C1c1ccco1 (stereo not drawn)	1.7	-1.0	-1.8	-2.4	-7.4	-7.0
62	CCOC(=O)C(=O)NNc1ccc(Cl)cc1	-4.9	-0.4	-2.7	1.4	-0.2	-0.6
63	CCOc1ccc(/C=N/NC(=O)Cc2cccs2)cc1	4.8	1.2	-4.6	-12.7	-5.4	-4.0
64	CCn1c(SCC(=O)N2CCN(c3ccc(F)cc3)CC2)nnc1-c1ccncc1	21.3	0.0	-4.6	15.0	2.8	9.2

Later entries
no.	canonical_smiles	TRPV1 potentiator	TRPML1 ag	D2 potentiator	TRPML1 blocker	Six1-Eya2 inh	CtBP-E1A inh
65	O=C1CCCC(=O)N1c1ccc(NCCOCCO)c([N+](=O)[O-])c1	?	0.0	-2.4	-1.9	-6.6	17.0
66	Cc1ccc(C2=[N+]([O-])C(C)(C)CC2)cc1	-14.9	1.2	20.5	4.0	0.6	1.6
67	Cc1nc(CSc2ccc(Br)cc2)cs1	14.7	2.0	3.8	-21.5	15.4	25.1
68	COC(=O)c1ccc(CN2CCC(Oc3cccc(C(=O)N4CCCC4)c3)CC2)cc1	/	0.9	-38.4	10.5	6.5	-2.9
69	COc1cc(OC)cc(-c2nc(-c3ccc(Br)cc3)no2)c1	-8.8	3.2	-4.8	-5.4	3.0	1.9
70	CCN1C(=O)N[C@@H](c2cccc(C(F)(F)F)c2)C(C(C)=O)=C1C	/	0.0	5.1	14.3	-0.5	6.7

High-throughput results as filed in PubChem BioAssay.
